# A1 inh: inhibitors of the anti-apoptotic protein A1, read as caspase activation. MEF A1-2A-BIM cells, Caspase-Glo 3/7 luminescence, 3 h; percent of clofoctol response, vehicle zero. caspase activation, % (concentration not given with the values). 330,000 tested, 0.066% active. AID 2462;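 active = over half of replicate activation scores above 10%, or exactly half above 10 with the replicate mean above 10; inconclusive = replicate mean below 10 yet half the replicates above 10; inactive = over half of replicates below 10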;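 also: wells of about 30 µL received 50 nL stock; many hits fall short of the cut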
# RanGTP-Imp inh: disruptors of Ran-importin-beta complex formation – biochemical, FRET, CFP-Ran, YFP-importin-beta, homogeneous, primary screen; 300,000 tested, 1.1% active; inhibition, % (concentration not given with the values); cell-free CFP-Ran/YFP-importin-beta FRET ratio;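 active = most replicates above 15%; inconclusive = exactly half above 15%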;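 also: 0% = DMSO wells and 100% = Ran loaded with GDP instead of GTP; wells of about 40 µL received 100 nL stock; the first replicate is given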
# Beta apoptosis: beta cell apoptosis inhibition; protection from apoptosis, % (no concentration beside the values); 300,000 tested, 0.8% active; INS-1E cytokine-induced death, ATP luminescence, 48 h; percent of positive-control rescue, neutral wells zero; AID 435005;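 active = all replicates at 75% or more, or half of them and the mean; inconclusive = half reach 75% but not the mean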;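 also: 0% = cytokine-treated negative control wells and 100% = positive control rescue; higher means more ATP so stronger rescue from cytokine killing; wells of about 40 µL received 100 nL stock; the first replicate is given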
# Vif TR-FRET: HIV-1 Vif–A3G interaction blockers – biochemical, TR-FRET, GST-Vif 1-94, biotin-A3G peptide, dose response retest, primary screen (AID 1117319). TR-FRET GST-Vif / biotin-A3G peptide binding; higher % means a stronger effect; test concentration not given here; strong numbers were not always called active. inhibition, %; hits with a dose series show IC50 in µM. 260,000 tested, 0.57% active;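 active = above the screen mean plus three standard deviations and confirmed in dose response; inconclusive = results disagree or hit not tested in dose response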;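 also: Vif residues 1-94 fused to GST binding biotinylated APOBEC3G peptide 110-148; 0% = full assay without inhibitor and 100% = GST in place of GST-Vif; retest series ran down from 100 µM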
# T cruzi repl: blocks replication of Trypanosoma cruzi. T. cruzi beta-gal in NIH3T3, luminescence, 90 h. inhibition, % (test concentration not listed). 300,000 tested, 1.4% active;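 active = mean inhibition across valid replicates above about 55%, limit read from the data; inconclusive = mean below that limit but half or more replicates reach it; inactive = mean below it, under half of replicates reach it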;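 also: signal also drops with host cell toxicity which is not excluded here; 0% = plate median of DMSO wells and 100% = zero luminescence signal; higher percent means less beta-gal luminescence so fewer parasites; stock transfer was 50 nL into about 50 µL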
# Calb FLC: affects C. albicans growth with fluconazole | 300,000 tested, 0.57% active | C. albicans CaCi-2 (fluconazole-resistant clinical isolate) + fluconazole, Alamar Blue growth, 48 h | growth inhibition, % (no concentration beside the values);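 active = most replicates above 75%; inconclusive = exactly half above 75%; inactive = most below 75%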;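 also: all wells also contain fluconazole at 8 µg/ml as a sub-toxic cotreatment; 0% = median of DMSO wells and 100% = median of geldanamycin control wells; wells of about 8 µL received 7.5 nL stock; the first replicate is given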
# AF4-AF9 inh: blocks AF4 peptide binding to human AF9. AlphaScreen, biotin-AF4 peptide binding to FLAG-AF9. P42568. inhibition, % at 10 µM. 350,000 tested, 0.47% active;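 active = every replicate reaching a set inhibition limit, whatever the replicate mean, cut at about 25% in these data; inconclusive = mean inhibition reaches that limit but some replicates miss it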;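 also: 0% = plate neutral control median and 100% = total signal loss; the record names both 10 and 1 µM as test concentration; the first replicate is given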
# Target sequence (P42568 whole entry, looked up): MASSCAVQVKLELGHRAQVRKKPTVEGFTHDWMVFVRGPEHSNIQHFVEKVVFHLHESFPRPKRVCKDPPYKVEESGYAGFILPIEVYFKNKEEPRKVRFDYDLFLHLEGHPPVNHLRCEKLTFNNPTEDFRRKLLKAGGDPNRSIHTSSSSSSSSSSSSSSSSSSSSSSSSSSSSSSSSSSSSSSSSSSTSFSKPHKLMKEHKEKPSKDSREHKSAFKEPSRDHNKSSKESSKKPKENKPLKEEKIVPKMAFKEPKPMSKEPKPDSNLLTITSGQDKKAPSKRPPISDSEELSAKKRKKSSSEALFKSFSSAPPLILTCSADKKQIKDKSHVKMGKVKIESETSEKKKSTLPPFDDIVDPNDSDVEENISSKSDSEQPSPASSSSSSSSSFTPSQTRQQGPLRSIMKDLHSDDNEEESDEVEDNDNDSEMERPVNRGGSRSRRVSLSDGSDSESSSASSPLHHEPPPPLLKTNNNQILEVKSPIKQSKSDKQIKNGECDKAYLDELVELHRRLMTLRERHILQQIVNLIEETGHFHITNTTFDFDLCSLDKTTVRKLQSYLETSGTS
# rRNA inh HTS: selective bacterial rRNA inhibition in E. coli; E. coli WT GFP vs humanized-ribosome RFP mutants, fluorescence, 24 h; hits give low values; DMSO median 0, no signal -100; 350,000 tested, 1.6% active; GFP signal change (wild-type ribosome), % (test concentration not listed);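 active = significant combined selectivity score with lowered wild-type GFP, culture density cut under 30%, mutant RFP and density less affected; inactive = any of these conditions unmet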; also: one replicate is shown; some compounds called inactive have numbers as strong as hits
# rRNA inh HTS OD600: recorded beside rRNA inh HTS, whose call it bears; OD600 change, %; measured here: OD600 growth;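 optical density of the mix in the first replicate; 0 = DMSO median and -100 = no signal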
# rRNA inh HTS RFP: further read-out of rRNA inh HTS, marked with its call; RFP signal change, %; measured here: RFP humanized mutant strains;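 first replicate; 0 = DMSO median and -100 = no signal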
# Starred values were filed as active, the others as inactive; ? = inconclusive; nt = not tested or not shown; & = joins results of further samples.
Structure,A1 inh,RanGTP-Imp inh,Beta apoptosis,Vif TR-FRET,T cruzi repl,Calb FLC,AF4-AF9 inh,rRNA inh HTS,rRNA inh HTS OD600,rRNA inh HTS RFP
CC(C)(C)OC(=O)N1Cc2ccccc2C[C@H]1C(=O)N1CCC[C@H]1C(=O)O,0.9,4.7,-4.4,-0.3%,-8.3,1.9,-1.3,11.8,23.1,0.2
COc1ccc(C)cc1N(CC(=O)N1CCc2ccccc2C1)S(C)(=O)=O,0.0,-3.5,0.1,-0.5%,3.9,9.5,-13.3,-1.2,-5.8,-2.8
CC(OC(=O)C1CCCCC1)C(=O)Nc1cccc([N+](=O)[O-])c1 (stereo unspecified),-0.4,nt,1.4,12.4%,nt,nt,1.5,nt,nt,nt
CN(C)C(CNC(C(=O)Nc1ccc([N+](=O)[O-])cc1Br)c1ccccc1)c1ccccc1 (stereo unspecified),-0.1,6.9,-4.0,23.3%,40.1,2.6,34.9*,-14.2,1.1,-0.1
O=C(Cc1cn2ccsc2n1)Nc1nc2c(s1)CN(Cc1ccccc1)CC2,0.9,11.1,-2.9,-9.3%,4.7,0.4,nt,nt,nt,nt
COc1cccc(C(=O)N2CCN(S(=O)(=O)Cc3ccccc3)CC2)c1OC,-0.1,4.9,-5.0,4.6%&-6.7%,-12.7,11.4,nt,nt,nt,nt
CCCCCCNC(=O)CC(NS(=O)(=O)c1ccc(OC)cc1)C(C)C (stereo unspecified),-0.5,1.3,-6.5,-1.4%,-6.1,-5.0,-0.1,2.8,-9.6,0.1
O=S(=O)(NC1CC1)c1ccc(S(=O)(=O)N(Cc2ccccn2)C2CCCC2)cc1,0.8,0.0,-1.2,1.9%,1.7,0.1,nt,nt,nt,nt
O=C(CNC(=O)c1ccco1)OCc1ccccc1Cl,0.3,nt,-0.9,-3.9%,nt,nt,-2.6,0.4,-2.0,-2.5
COc1cccc(-c2ccc(NC(=O)C3CCCN(Cc4nccn4C)C3)cc2)c1 (stereo unspecified),0.5,3.9,-2.4,-1.5%,-9.8,-7.5,7.3,6.8,0.4,7.4
CN(Cc1nccn1C)C(=O)c1ccc(OC2CCN(CCc3ccccc3)CC2)cc1,-0.5,1.3,2.5,nt,-13.9,1.7,0.3,1.5,-1.3,-2.4
CN(CC(=O)Nc1ccc(N2CCOCC2)cc1)C(=O)CSc1ccccc1F,-0.3,nt,6.5,-8.3%,nt,nt,0.8,0.7,0.5,-1.0
O=C(C1CCCO1)N1CCN(Cc2c(O)ccc3ccccc23)CC1 (stereo unspecified),1.2,3.7,-4.7,7.4%,-3.1,11.1,nt,nt,nt,nt
CCOc1ccc(N(CC(=O)NC2CCCCC2)S(=O)(=O)c2c(C)noc2C)cc1,0.4,3.3,nt,68.9%,9.7,12.4,0.5,10.6,6.8,2.4
COc1ccc(C(CNC(=O)C(CC(C)C)NS(=O)(=O)c2ccc(C)cc2)N2CCOCC2)cc1 (stereo unspecified),-0.6,2.9,0.5,5.8%,-5.5,1.0,2.4,3.7,6.6,0.3
CCCc1nnc(NC(=O)CNc2ccc(F)cc2)s1,-0.3,-5.7,-0.2,8.6%,-8.3,nt,nt,nt,nt,nt
COc1ccc(-c2cc(C(=O)NN)[nH]n2)cc1OC,0.1,?,-1.0,-0.4%,-14.7,14.4,-0.5,-21.5*,-6.7*,3.4*
Cc1ccc(-n2nc3c(=O)n(CC(=O)NCCc4ccccc4C)nc(C)c3c2C)cc1,0.2,6.3,8.3,nt,2.5,15.2,-1.6,6.1,10.8,-0.6
O=C(Nc1ccc(S(=O)(=O)N2CCOCC2)cc1)c1ccc(Br)o1,0.3,-3.5,-13.5,-0.2%,-1.2,-12.1,nt,nt,nt,nt
Cc1cc(NC(=O)CCCC(=O)N(CC(=O)NCCc2ccccc2)Cc2ccc(F)cc2)no1,-0.7,0.9,-2.3,-10.6%&-8.6%,2.6,?,nt,nt,nt,nt
NC(=O)N/N=C/c1c(Sc2nnnn2-c2ccccc2)nc2ccccn2c1=O,1.3,-0.7,-51.1,-10.7%,15.1,1.3,0.3,2.7,6.5,0.5
Cn1c(O)c(/C=C2\C=Nc3ccccc32)sc1=Nc1ccc(C(=O)O)cc1,0.5,-1.1,-6.9,-3.1%,-5.4,13.0,3.0,12.0,14.4,2.5
CNC(=O)C(=O)N/N=C/c1cccnc1,0.4,-1.9,-1.1,74.4%,3.1,-2.5,-4.7,21.8,6.1,0.7
O=S(=O)(Nc1ccccn1)c1ccc(C(F)(F)F)cc1Cl,0.4,13.2,-6.7,-5.2%,-21.9,16.2,-1.4,13.9,4.3,2.1
COc1ccc(OC)c(NC(=O)c2ccc(CN3CCc4ccccc4C3)cc2)c1,0.7,-3.7,-3.5,-4.4%,11.8,-17.1,4.3,-10.2,-9.8,-0.5
O=C(CSC1=NCCN1)Nc1cccc(C(F)(F)F)c1,0.1,-1.1,-68.8,11.1%,12.3,-2.9,-5.5,15.4,10.7,3.5
CCCN(CC(=O)Nc1ccccc1C)C(=O)C1CC(=O)N(Cc2ccccc2)C1 (stereo unspecified),-0.4,-0.5,4.0,4.6%,-3.2,-2.3,-20.1,9.9,15.5,-1.6
COc1ccc(Cc2n[nH]c(=S)n2N)cc1OC,-0.4,-0.4,-1.4,6.6%,-6.2,0.1,-5.9,7.1,7.0,1.6
O=C(NCCc1ccccc1)c1cnc2ccccn2c1=O,-1.5,0.4,2.7,-11.6%,-6.1,-2.6,nt,nt,nt,nt
CCCOc1ccccc1NC(=O)CC1Nc2ccccc2NC1=O (stereo unspecified),0.8,nt,1.1,8.6%,-5.8,11.4,nt,nt,nt,nt
COc1ccc(/C=N/NC(=O)c2cccc(COCC(F)(F)C(F)F)c2)cc1,0.4,-2.4,3.4,10.8%,0.7,-21.7,nt,nt,nt,nt
COc1ccc(CCn2cnc(=O)c(C#N)c2C)cc1OC,0.2,-6.2,-7.3,-15.0%,-1.0,-1.0,-2.5,-12.6,-10.5,4.0
CN1C(C(=O)NCCc2cccs2)CC2Cn3c(nc4cc(Cl)c(Cl)cc43)C21 (stereo unspecified),-0.6,-3.2,-6.8,8.9%,18.5,1.7,5.0,-10.2,-12.2,8.2
CCCCc1nn(-c2cc(Cl)ccc2OC)c2c1C(=O)CC(C)(C)C2,0.5,-1.6,2.5,0.4%,13.4,17.4,-4.9,-0.4,-19.9,-3.1
Cc1ccc(OCC(=O)Nc2ccncc2)cc1,1.5,-2.3,-4.3,nt,-4.0,1.5,-2.4,2.9,1.3,-0.3
O=C(NCC(=O)N(Cc1cccs1)C(C(=O)NC1CCCC1)c1cccnc1)c1ccco1 (stereo unspecified),-0.5,?,-5.1,nt,-13.9,-3.1,nt,nt,nt,nt
CCOC(=S)SCC(=O)N1CCc2ccccc2C1C1C(=O)CC(C)(C)CC1=O (stereo unspecified),-0.4,2.5,-2.8,7.7%,-16.8,-13.0,-2.3,14.5,8.7,1.2
Cc1c(NC(=O)COC(=O)c2cccn2C)c(=O)n(-c2ccccc2)n1C,0.5,nt,0.6,0.1%,nt,nt,-0.2,8.0,21.4,-7.2
CCC(=O)Nc1nnc(SCCN2CCOCC2)s1,1.7,nt,-2.2,nt,-0.9,-5.6,-3.6,13.6,9.1,-3.6
CN(C)c1ccc(S(=O)(=O)N2CCCCC2)cc1NC(=O)CN1C(=O)NC2(CCCC2)C1=O,-0.2,-3.2,-3.7,-3.7%,-1.6,1.8,-3.1,0.8,10.6,4.7
CC(=O)c1ccc(OCC(=O)N(C)CC(=O)Nc2ccc(N3CCOCC3)cc2)cc1,0.4,nt,0.3,7.9%,nt,nt,-2.6,nt,nt,nt
CCCCN(C)C(=O)c1nc2ccccn2c1CN1CCN(c2ccccn2)CC1,0.1,2.5,0.6,-11.9%,4.3,14.8,-1.2,2.2,1.7,2.2
CCC(=O)N1CCCc2cc(S(=O)(=O)N3CCCc4ccccc43)ccc21,-0.3,-0.9,0.6,-6.0%,21.7,-0.5,nt,nt,nt,nt
Cc1ccccc1COc1ccc(/C=N/NC(=O)c2nnn(-c3nonc3N)c2CN2CCC(C)CC2)cc1,-1.9,-1.9,19.7,nt,3.8,1.8,3.8,6.5,8.6,-1.7
COc1cc(C)c(-c2[nH]ncc2-c2csc(C)n2)c(O)c1,-0.3,2.2,-2.5,5.3%,-9.5,49.9,-3.9,-4.2,-2.4,-3.3
CC1CCCCC1NC(=O)C1CC=CCC1C(=O)O (stereo unspecified),1.0,2.6,nt,5.0%,-25.4,-0.5,nt,nt,nt,nt
CCC(=O)NC(Nc1nc(C)cs1)(C(=O)OC)C(F)(F)F (stereo unspecified),1.5,-6.2,4.5,4.9%,-7.5,-3.2,nt,nt,nt,nt
O=C1NC(c2ccccc2)=NC1(Nc1ccccn1)C(F)(F)F (stereo unspecified),-0.7,-0.6,-2.1,nt,-4.0,0.6,-1.0,1.4,7.4,-5.0
Cc1c(-c2ccco2)[n+](=O)c2c(n1[O-])CCCCC2,1.1,-3.3,-4.1,1.7%,-5.7,-12.8,nt,nt,nt,nt
CCN(CC#CCC(O)(c1ccccc1)c1ccccc1)C(C)C,-0.6,-0.2,nt,-5.2%,14.0,-0.5,0.6,19.8,0.5,6.7
Nc1ccccc1S(=O)(=O)NC1=NCCCCC1,-0.6,-0.1,-10.3,?,4.9,-23.7,nt,nt,nt,nt
CC(C)=CC(=O)Nc1nnc(C(C)C)s1,-0.4,2.2,-26.3,4.1%,1.2,4.5,nt,nt,nt,nt
CC(=O)Nc1cccc(NC(=O)C2CCN(C(=O)c3ccco3)CC2)c1,-0.4,-0.4,-4.2,nt,-3.0,-5.1,-1.8,2.6,-1.9,-3.3
O=C(O)c1ccc(NS(=O)(=O)c2ccc3c(c2)C(=O)c2ccccc2C3=O)cc1,1.1,?,-4.4,nt,-0.7,-36.5,-1.9,-44.6,-71.2,-14.0
CCOC(=O)C1C(=O)OC(C)(C)C1C(C)C(=O)c1ccc(C)cc1C (stereo unspecified),0.8,-0.4,4.1,6.1%,-5.7,-14.4,-1.1,7.0,8.5,-8.1
Cc1cc(=O)oc2c(C)c(OCC(=O)N3CCN(c4ccc(F)cc4)CC3)ccc12,0.2,6.7,nt,nt,24.8,6.3,-1.2,-7.0,-25.8,-2.9
Cc1cc(C)cc(C(=O)N(NC(=O)Nc2ccc(Cl)cc2)C(C)(C)C)c1,-0.1,3.2,4.6,6.8%,17.7,-3.6,nt,nt,nt,nt
COc1ccc(S(=O)(=O)NCc2ccc3c(c2)OCO3)cc1C,-0.3,-0.9,-4.2,18.6%,-19.5,-8.5,0.2,-19.9,-11.8,-4.6

# Source: PubChem BioAssay

# These rows are one share of the data; the hit share may differ from the screen's.
